# Screening data (PubChem)
# Rango release inh = qHTS Assay for Inhibitors of RanGTP induced Rango (Ran-regulated importin-beta cargo) - Importin beta complex dissociation | Potency, µM (series often up to 46.1 µM), inactives show at the highest dose activity change, negative = inhibition | Biochemical FRET Rango-importin beta, RanGTP-induced dissociation | actives 0.071% (n = 340,000) | Snurportin-1 (Homo sapiens) + GTP-binding nuclear protein Ran (Homo sapiens) + Importin …; active means falling FRET ratio curve, often poorly fitted, with flat reads before Ran was added; inconclusive means other falling curves, or compound fluorescence or quenching; inactive means flat or rising ratio curve;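 also: potency is read from the fitted curve at half-maximal effect; % of control where 0% means no effect; nearly all actives have a fitted effect of over 45% in size; -100% = wells without RanGTP and RCC1; the record marks most hits as doubtful in a second field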
#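 Two FRET readings bracket the reaction: one 5 min after compound meets Rango–importin beta, another 45 min after RanGTP-RCC1 (0.6 uM Ran, 0.2 uM RCC1, 2 mM GTP) is added. Only the second defines inhibition.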
# GLA inh pH 4.5 = qHTS Assay for Inhibitors of Human alpha-Galactosidase at pH 4.5; AID 1467, 2008; Alpha-galactosidase A (Homo sapiens), P06280; activity change, negative = inhibition, % at 105 µM; 230,000 tested, under 10 active; purified enzyme, 4-MU-alpha-Gal fluorescence, pH 4.5; inconclusive = small, poorly fitted or top-dose-only inhibition, or a rising curve; inactive = flat fitted curve, though single readings scatter; no compound was filed as active;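 also: 0% = full activity with enzyme and -100% = basal without enzyme; dose as in the result columns while the protocol names 77 µM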
# Rango complex inh = qHTS Assay for Inhibitors of Rango (Ran-regulated importin-beta cargo) - Importin beta complex formation. Rango CFP/YFP FRET sensor + importin beta, 45 min. Potency, µM (doses to about 92.2 µM), for the others: at the top dose inhibition of complex formation. actives 0.031% (n = 340,000). AID 540263, 2011; active = rising FRET ratio curve, often small or poorly fitted; inconclusive = mostly compound fluorescence or quenching in the first reads; inactive = flat curves in all reads;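 also: potency is read from the fitted curve at half-maximal effect; 0% = DMSO wells and 100% = buffer wells lacking importin beta; nearly all actives have a fitted effect of over 15% in size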
# Target sequence (Q14974 whole entry, looked up): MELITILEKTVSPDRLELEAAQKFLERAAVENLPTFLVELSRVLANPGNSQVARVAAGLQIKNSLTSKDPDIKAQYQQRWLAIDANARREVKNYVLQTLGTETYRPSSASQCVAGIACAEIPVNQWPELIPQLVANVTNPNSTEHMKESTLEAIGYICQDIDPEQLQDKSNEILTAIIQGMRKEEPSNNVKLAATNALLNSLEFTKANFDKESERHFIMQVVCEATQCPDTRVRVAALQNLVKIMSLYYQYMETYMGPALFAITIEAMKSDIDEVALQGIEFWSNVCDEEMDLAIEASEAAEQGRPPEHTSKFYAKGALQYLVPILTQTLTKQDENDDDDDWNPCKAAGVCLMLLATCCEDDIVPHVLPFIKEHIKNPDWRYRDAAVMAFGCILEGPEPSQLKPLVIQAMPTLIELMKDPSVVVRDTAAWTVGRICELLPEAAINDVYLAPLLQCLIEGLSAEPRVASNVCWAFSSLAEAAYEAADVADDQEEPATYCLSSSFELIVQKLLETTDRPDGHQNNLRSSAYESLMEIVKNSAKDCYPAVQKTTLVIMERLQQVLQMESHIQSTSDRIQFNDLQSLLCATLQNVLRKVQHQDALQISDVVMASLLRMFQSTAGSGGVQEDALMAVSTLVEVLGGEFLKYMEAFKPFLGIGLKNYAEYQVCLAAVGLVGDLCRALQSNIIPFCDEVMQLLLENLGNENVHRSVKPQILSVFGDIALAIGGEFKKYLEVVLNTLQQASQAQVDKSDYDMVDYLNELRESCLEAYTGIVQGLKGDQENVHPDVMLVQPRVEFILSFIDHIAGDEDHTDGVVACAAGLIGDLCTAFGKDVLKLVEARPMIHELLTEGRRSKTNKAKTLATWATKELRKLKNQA
#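 Inhibition scored from the CFP 486 nm/YFP 530 nm FRET ratio 45 min after adding 0.125 microM importin beta to 50 nM Rango biosensor preincubated 5 min with compound (room temperature, PBS with DTT, Tween-20, BSA). No-importin wells as positive control.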
# miR-21 reporter = qHTS Assay for Modulators of miRNAs and/orActivators of miR-21; HeLa miR-21 FLuc reporter, luciferase, 48 h; Potency, µM (doses to about 38.3 µM), for the others: at the top dose reporter change, positive = more light; 340,000 tested, under 10 active; active = well fitted rising curve with a large enough effect; inconclusive = small, poorly fitted or top-dose-only effect; inactive = no such curve, though single readings can be large or run the other way;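 also: % of control where 0% means no effect; miR-21 action dims this reporter so a rising signal means less miR-21 action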
#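 HeLa cells endogenously expressing miR-21, stably carrying CMV-driven firefly luciferase with a downstream miR-21 binding site, 2000 cells/well. Titrations up to approximately 40 uM, 48 hours; luciferase luminescence read.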
# Starred values were filed as active, the others as inactive; ? = inconclusive; nt = not tested or not shown; & = joins results of further samples; [ ] = remark or other dose. A portion of the library; count on the stated rates, not on these rows.
SMILES,Rango release inh,GLA inh pH 4.5,Rango complex inh,miR-21 reporter
COc1ccc(OC)c(CC(NC(C)=O)C(=O)NC2CCN(c3nc(C)cc(C)c3C#N)CC2)c1 (centres undefined),nt,-4,nt,-7%
OC(CN1CCN(c2cccc(Cl)c2)CC1)c1ccccc1 (centres undefined),8%,nt,0.7%,-10%
O=C(CCCN1C(=O)/C(=C/c2cccs2)SC1=S)Nc1cccc(C(=O)O)c1,27%,?,2.0%,-2%
CN1C(=O)NC(c2ccccc2)C2=C1CN(c1cccc(C(F)(F)F)c1)C2=O (centres undefined),-8%,3,-1.3%,-4%
CCCCCc1ccc(C2=NNC(=O)CC2)cc1,0%,nt,2.2%,-53%
C=CCNC(=O)c1cccc(NS(=O)(=O)c2ccc(Cl)cc2)c1,-3%,0,-3.0%,-1%
CCOc1cccc2c1OC1(C)CC2NC(=O)N1c1ccc(OC)cc1 (centres undefined),?,-6,-0.1%,-1%
CCOC(=O)c1ccc(N2C(=O)CC(NC3CCN(C(=O)c4ccc(F)cc4)CC3)C2=O)cc1 (centres undefined),-4%,5,-0.6%,-1%
CC(=O)c1sc(NC(=O)C2COc3ccccc3O2)nc1C (centres undefined),1%,-4,-3.5%,-1%
CC(C)(C)C(=O)OC/C(N)=N/OC(=O)c1ccccc1,14%,1,5.6%,3%
NS(=O)(=O)c1ccc(NC(=O)CSc2nnc(COc3ccccc3Cl)n2C2CC2)cc1,-1%,1,-1.9%,0%
COc1ccc(S(=O)(=O)N(CC(=O)NCC2CCCO2)c2ccc(Cl)cc2)cc1 (centres undefined),-4%,nt,-4.6%,0%

# A draw from above in order of SMILES length, rising:
SMILES,Rango release inh,GLA inh pH 4.5,Rango complex inh,miR-21 reporter
O=C(CCCN1C(=O)/C(=C/c2cccs2)SC1=S)Nc1cccc(C(=O)O)c1,27%,?,2.0%,-2%
NS(=O)(=O)c1ccc(NC(=O)CSc2nnc(COc3ccccc3Cl)n2C2CC2)cc1,-1%,1,-1.9%,0%
CCOC(=O)c1ccc(N2C(=O)CC(NC3CCN(C(=O)c4ccc(F)cc4)CC3)C2=O)cc1 (centres undefined),-4%,5,-0.6%,-1%

# Following part.
SMILES,Rango release inh,GLA inh pH 4.5,Rango complex inh,miR-21 reporter
COc1ccc(C(=O)Nc2ccc3[nH]ncc3c2)cc1,-17%,nt,-0.3%,-6%
C=CCNC(=S)Nc1nc2c(cc1C(=O)OCC)CCCC2,3%,-17,0.6%,-29%
Cc1cccc(NS(=O)(=O)c2ccc(C)c(C(=O)NC3CCN(Cc4ccccc4)CC3)c2)c1,-15%,nt,-3.3%,nt
O=C(NCCN1CCN(c2ccccc2)CC1)Nc1ccccc1Cl,12%,nt,0.6%,-1%
O=C(c1ccccc1F)N1CCC(N2CCCCCC2)CC1,-5%,7,-7.5%,-8%
Cc1nc2ccccc2cc1C(=O)N/N=C/c1cccc([N+](=O)[O-])c1,-2%,1,1.6%,-11%
CC(=O)N1CCN(c2ccc(NC(=S)NC(=O)c3ccccc3)cc2)CC1,9%,-4,-2.2%,-3%
COc1ccc(CCNCC(C)c2ccccc2)cc1 (centres undefined),-13%,nt,-1.7%,-5%
CN(CC(=O)Nc1ccc(F)cc1Cl)Cc1cccs1,-2%,nt,0.2%,-11%
O=C(Nc1nnc(-c2ccc(Cl)cc2)o1)c1ccc(N2C(=O)CCC2=O)cc1,-15%,0,-0.9%,1%
NS(=O)(=O)c1ccc(NC(=O)c2cc(-c3cccs3)nc3ccccc23)cc1,-8%,6,-0.2%,-18%&-12%
Cc1ccc(-n2c(-c3ccc(Cl)cc3Cl)n[nH]c2=S)cc1,1%,nt,0.8%,1%
O=C(O)c1cc(S(=O)(=O)Nc2ccc(OCc3ccccc3)cc2)ccc1Br,-1%,nt,-4.2%,-7%
N#CC1(NC(=O)COC(=O)c2ncc(Cl)c(Cl)c2Cl)CCCCC1,-2%,nt,4.0%,nt
O=C(NCCc1ccccn1)c1cccc(S(=O)(=O)N2CCCCCC2)c1,2%,3,0.3%,-13%
COc1ccc(N=C2S/C(=C\c3ccc(C)o3)C(=O)N2CC(C)C)cc1,0%,0,-0.2%,-9%
O=C(CSc1nc2[nH]ncc2c(=O)[nH]1)Nc1nccs1,nt,5,nt,0%
C=CCOC(=O)C1=C(C)NC(=O)NC1c1ccc(O)cc1 (centres undefined),1%,nt,0.6%,-2%
Cc1cccc(C)c1NC(=O)NC1(C(=O)N2CCCCC2)CCCCC1,29%,nt,-3.7%,-1%
Cn1c(N2CCOCC2)c(/C=N/O)c2ccccc21,1%,9,1.4%,-3%
Cc1oc(C(C)(C)C)cc1C(=O)Nc1cccc(C(=O)O)c1,7%,5,-1.1%,-52%
Cc1cccc(C)c1N=Nc1c(C)cc(O)cc1C,-1%,nt,-5.3%,-14%
O=C(/C=N/O)Nc1ccc2sc3ccccc3c2c1,-7%,-1,-1.0%,-21%
CC1CC(C)(C)NC(=S)N1CCCC(=O)Nc1ccc(Br)cc1 (centres undefined),21%,-8,2.7%,-2%
CCOc1ccc(/C=N/NC(=O)Nc2ccccc2)cc1,-4%,7,0.8%,-51%
CCOC(=O)N1CCN(CCC(=O)Nc2cccc(Br)c2)CC1,-9%&0%,8&3,-5.7%&-0.4%,2%&4%
O=c1c2c3c(sc2n(CCN2CCOCC2)c(=O)n1Cc1ccco1)CCCCC3,15%,6,-0.2%,-9%
COc1cc(NC(=O)CN2CCN(c3ccccc3F)CC2)cc(OC)c1,11%,-27,-4.3%,-4%
Cc1nc2c3cc(Cl)ccc3n(CCN3CCCCC3)c2s1,2%,-1,2.6%,21%
COc1ccc(CN(C(=O)c2ccccc2Br)C2CCS(=O)(=O)C2)cc1 (centres undefined),8%,nt,-4.4%,-9%
O=C(NCc1ccccc1)C1CCCN(c2ncnc3c2nc2n3CCCCC2)C1 (centres undefined),0%,nt,-0.4%,7%
Cc1ccc(OC(=O)c2cccc(S(=O)(=O)N3CCN(C)CC3)c2)c(Br)c1,3%,nt,1.0%,-1%
COc1ccc(C(=O)NCC(=O)OCC(=O)N2CCN(S(=O)(=O)c3ccccc3)CC2)cc1,0%,-3,-0.6%,-3%
O=C(N=c1ccn(-c2nc3ccccc3nc2NS(=O)(=O)c2ccc(Cl)cc2)cc1)c1ccccc1Cl,nt,-7,nt,3%
Cc1cccc(NC(=S)NCc2ccco2)c1C,-7%,-4,-0.6%,-5%
CCOC(=O)c1ccc(NC(=O)COC)cc1,-15%,-2,-0.1%,-37%

# 4 of the compounds above, with the structure last:
Rango release inh,GLA inh pH 4.5,Rango complex inh,miR-21 reporter,molecule
3%,nt,1.0%,-1%,Cc1ccc(OC(=O)c2cccc(S(=O)(=O)N3CCN(C)CC3)c2)c(Br)c1
-7%,-4,-0.6%,-5%,Cc1cccc(NC(=S)NCc2ccco2)c1C
-15%,-2,-0.1%,-37%,CCOC(=O)c1ccc(NC(=O)COC)cc1
11%,-27,-4.3%,-4%,COc1cc(NC(=O)CN2CCN(c3ccccc3F)CC2)cc(OC)c1

# Remaining list, next part:
SMILES,Rango release inh,GLA inh pH 4.5,Rango complex inh,miR-21 reporter
O=[N+]([O-])c1cc(S(=O)(=O)Nc2cccc(Cl)c2)ccc1N=Nc1c(O)[nH]c2ccccc12,29%,5,-1.7%,-1%
COc1cccc(/C=N/NC(=O)c2cc3cc([N+](=O)[O-])ccc3s2)c1O,-11%,-14,-3.3%,23%
CCNC(=S)N1CCc2cc(OC)c(OC)cc2C1COc1ccc(F)cc1 (centres undefined),-5%,-30,0.8%,-6%
CC(=O)Nc1ccc(S(=O)(=O)NCCC(=O)OCC(=O)c2cc(C)ccc2C)cc1,0%,nt,-1.6%,nt
O=C(CN1CCN(Cc2ccccc2)CC1)Nc1ccccc1-c1ccccc1,6%,-10,1.7%,12%
O=C(Oc1ccc(Cl)cc1)c1ccc2nccnc2c1,-17%,7,-1.0%,0%
COc1cc(S(=O)(=O)NCCOC23CC4CC(CC(C4)C2)C3)c(OC)cc1Cl,-14%,4,-0.1%,0%
CSc1nc2cc(Cl)ccc2s1,5%,-6,4.6%,0%
O=C(Nc1ccc2c(c1)OCO2)c1ccc2nc[nH]c2c1,-17%,0,0.8%,-52%
CCCCn1c(N)c(N(CC(C)C)C(=O)C2=COCCO2)c(=O)[nH]c1=O,6%,nt,-3.4%,nt
CC(=O)C1=C(O)C(=O)N(c2ccc(Br)cn2)C1c1ccc(F)cc1 (centres undefined),?,1,5.2%,-53%
Cc1ccc(S(=O)(=O)N2CCCCC2)cc1NC(=O)COC(=O)CN1C(=O)NC2(CC(C)CC(C)(C)C2)C1=O (centres undefined),-6%,nt,0.9%,nt
CC(=O)NC(C)(CC(=O)c1ccccc1)c1ccccc1 (centres undefined),-1%,nt,-0.4%,nt
COc1cc(C)c(Cl)c(C)c1S(=O)(=O)NC1CC(C)(C)NC(C)(C)C1,6%,-24,0.0%,-15%
CC(/C=N/n1c(-c2ccc(Cl)cc2)n[nH]c1=S)=C\c1ccco1,3%,-12,2.4%,7%
O=C(O)c1ccc(Cl)c(S(=O)(=O)NCC2CCCO2)c1 (centres undefined),17%,-14,2.0%,-1%
Cc1cc(C)c2sc(N(CCCN(C)C)C(=O)c3ccc(S(=O)(=O)N4CCCc5ccccc54)cc3)nc2c1,0%,nt,-0.2%,nt
C=CCN(CC=C)C(=O)C1CCC(C(=O)N(CC=C)CC=C)CC1 (centres undefined),0%,-6,3.6%,-1%
Cc1cc(C)nc(/N=C(\N)N2CCCCC2)n1,0%,-2,-0.9%,0%
O=C1CCCc2nc(N3CCN(c4ccccc4)CC3)ncc21,4%,-1,-4.9%,-11%
CN(c1nc2ccccc2n2c(-c3ccco3)nnc12)S(=O)(=O)c1ccccc1,-21%,0,2.4%,-7%
CCN1C2=NCCCN2c2cc(C)c(C)cc21,8%,-12,1.4%,0%
Cc1ccccc1NC(=O)c1ccc(N/N=C/c2ccccc2O)c([N+](=O)[O-])c1,1%,1,1.3%,-6%
Cc1cc(C)c(C#N)c(Oc2ccccc2)n1,-12%,-7,6.4%,-10%
CCc1cc2ccccc2nc1SCC(=O)Nc1cc(C)on1,-17%,4,1.4%,-6%
C[C@@]12C(=O)N(c3cccc(Br)c3)C(=O)N1[C@H](c1ccc(Cl)cc1)[C@@H]1C(=O)N(C3CCCCC3)C(=O)[C@@H]12,-5%,nt,4.4%,26%
Cc1ccccc1C(=O)Nc1cccc(C(=O)N/N=C/c2cc(Cl)cc([N+](=O)[O-])c2O)c1,10%,-5,4.7%,20%
CCN(CC)C(=O)c1nn(-c2ccccc2)c2c1C1CCC2(C)C1(C)C (centres undefined),1%,-9,-0.2%,26%
COc1ccc(C(=O)NC2CCSc3ccccc32)cc1F (centres undefined),-7%,nt,4.9%,-15%
CCOC(=O)Cc1csc(NS(=O)(=O)c2ccc(F)cc2)n1,3%,3,2.0%,0%
CC(NC(=O)CCn1c(=S)[nH]c2ccsc2c1=O)c1ccccc1 (centres undefined),1%,5[21.1 µM],-0.9%,-4%
Cc1cc(C(=O)CSc2nc(N)cc(N)n2)c(C)n1CC1CCCO1 (centres undefined),-4%,nt,0.4%,nt
COc1ccc(C(=O)NC(C)c2ccc(-n3ccnc3)cc2)c(OC)c1OC (centres undefined),4%,nt,0.6%,-1%
CCCCCCCCc1nnc(NC(=O)c2ccco2)s1,-5%,-9,-6.7%,0%
Cc1cccc(-c2nnc(SC(C)C(=O)N3CCOCC3)o2)c1 (centres undefined),-7%,nt,2.3%,-4%
Cc1ccc(C(C)C)c(OCc2nnc3n2CCCCC3)c1,13%,-8,-0.4%,-4%
C/C(=N/NC(=O)c1ccccc1)c1ccc(NC(=O)C(F)(F)F)cc1,-1%,4,-2.9%,-63%
Cc1cccc(NC(=O)CSCC(=O)N2CCN(Cc3ccc4c(c3)OCO4)CC2)c1,-3%,nt,0.7%,nt
CC1(N(O)C=C2C=CC(=O)C=C2)CCCCC1=O (centres undefined),15%,-3,-1.3%,-5%
CCOC(=O)N1CCN(Cc2c(F)cccc2F)CC1,11%,3,-0.7%,-15%
C[C@]12CCC3C(CC[C@H]4CC(O)CC[C@]34C)C1CC/C2=N/O (some centres undefined),7%,nt,0.4%,-6%
